High-throughput results (PubChem)
KCNQ2 pot – potentiators of rat KCNQ2 potassium channel | O88943 | CHO-K1 KCNQ2, FluxOR thallium flux fluorescence; stronger effect = higher value | B-score at 10 µM | 310,000 tested, 0.54% active | AID 2239;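 active = fluorescence ratio B-score at least 3 SD of library B-scores, with initial fluorescence B-score within 3 SD, cut at about 5.3 in these data; same plate scores as AID 2156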;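 note: B-score of peak minus minimum over baseline fluorescence ratio after K+ and Tl+ stimulus; positive B-score means potentiation of KCNQ2 with more thallium influx and brighter signal; only the inactives scoring about 0 or higher are listed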
Target sequence (O88943 whole entry, looked up): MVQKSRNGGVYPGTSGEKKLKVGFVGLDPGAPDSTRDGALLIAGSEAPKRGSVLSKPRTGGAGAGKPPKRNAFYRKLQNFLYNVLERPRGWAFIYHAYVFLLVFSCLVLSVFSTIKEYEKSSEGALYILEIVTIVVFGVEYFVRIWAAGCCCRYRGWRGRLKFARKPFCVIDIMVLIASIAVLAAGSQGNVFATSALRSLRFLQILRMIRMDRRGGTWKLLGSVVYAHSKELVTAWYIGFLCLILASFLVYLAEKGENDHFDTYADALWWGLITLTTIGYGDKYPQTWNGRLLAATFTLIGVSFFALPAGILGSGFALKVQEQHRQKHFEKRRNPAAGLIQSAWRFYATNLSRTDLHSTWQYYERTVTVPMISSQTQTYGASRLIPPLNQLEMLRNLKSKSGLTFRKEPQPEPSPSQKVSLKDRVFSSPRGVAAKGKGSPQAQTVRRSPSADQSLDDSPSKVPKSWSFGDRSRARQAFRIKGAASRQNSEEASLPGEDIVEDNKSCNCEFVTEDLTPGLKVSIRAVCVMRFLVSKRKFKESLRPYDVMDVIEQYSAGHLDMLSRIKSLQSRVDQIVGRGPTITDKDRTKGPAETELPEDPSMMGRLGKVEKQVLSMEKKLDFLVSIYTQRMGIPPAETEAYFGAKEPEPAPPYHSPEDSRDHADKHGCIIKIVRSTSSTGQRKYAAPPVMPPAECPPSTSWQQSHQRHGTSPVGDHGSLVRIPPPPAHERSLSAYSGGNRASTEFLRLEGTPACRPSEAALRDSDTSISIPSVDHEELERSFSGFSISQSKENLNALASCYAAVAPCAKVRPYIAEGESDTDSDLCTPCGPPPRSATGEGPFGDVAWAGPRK
KCNQ2 pot baseline – further read-out of KCNQ2 pot, marked with its call; B-score; compound at 10 µM; measured here: initial fluorescence intensity artifact check;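 brightness before thallium and not channel activity; 0 = typical well and far values either way flag optical interference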
* marks the source's active call; other numbers are inactive results. This is a subset; count on the stated rates, not on these rows.

KCNQ2 pot | KCNQ2 pot baseline | smiles
1.4 | 0.45 | COc1ccc([N+](=O)[O-])cc1NC(=O)C(C)N1CCN(C(=O)c2ccco2)CC1 (stereo not given)
1.4 | 0.05 | Cc1ccc(CN2CCSCC2)c(C)c1
0.02 | -0.93 | Cc1cc(O)ccc1NC(=O)CCN1C(=O)c2ccc([N+](=O)[O-])cc2C1=O
0.5 | 0.36 | CN(C)c1ccnc2sc3c(NCC(O)CO)ncnc3c12 (stereo not given)
1.3 | 3.6 | NS(=O)(=O)c1ccc(Sc2ccc3c(c2)CCC3)nc1
0.54 | 1.3 | COc1cccc(COc2ccc3ccc(=O)oc3c2)c1
0.75 | 0.37 | O=C(c1ccccc1)c1cc2c(cc1[N+](=O)[O-])OCCO2
0.16 | -0.17 | COc1ccc(-c2nnc(SCC(=O)N3CCCC(C)C3)o2)c(OC)c1 (stereo not given)
2.9 | -1.7 | CSc1cccc(NC(=O)Nc2ccccc2C(N)=O)c1
1.1 | 1.3 | CCn1c(=O)cc(OCC(=O)Nc2cccnc2)c2ccccc21
0.02 | -0.35 | O=C(O)c1nc(NCCc2ccccc2)ncc1Cl
0.09 | -1.6 | COc1ccc(NC(C)=O)cc1NC(=O)c1cccc(S(=O)(=O)N2CCN(Cc3ccccc3)CC2)c1
0.47 | 0.92 | CC(=O)N1c2c(cc(Br)cc2S(=O)(=O)NCc2cccnc2)CC1C (stereo not given)
1.4 | 0.64 | O=C1c2ccccc2C(=O)N1CCc1nn[nH]n1
0.89 | -0.38 | O=C(NC1(C(F)(F)F)NC(=O)N(c2ccccc2F)C1=O)c1ccncc1 (stereo not given)
1 | 0.58 | Cc1ccc(NC(=O)COC(=O)c2ccc3c(c2)OCO3)cc1S(=O)(=O)N1CCCCC1
0.09 | 1.7 | CC(C)C(OC(=O)c1oc2ccccc2c1CSC1CCCCC1)C(=O)NC(N)=O (stereo not given)
0.97 | -0.82 | COc1ccc(C(=O)N(CN2CCCC2=O)c2nccs2)cc1OC
1.1 | -0.07 | OC(COc1cccc2ccccc12)CN1CCN(c2ccccn2)CC1 (stereo not given)
0.06 | 0.75 | CN1C(=O)c2ccc(NC(=O)C3CC3)cc2C1=O
0.65 | 0.21 | C=CCn1c(=O)c2ccccc2n2c(SCc3cc(=O)n4ccsc4n3)nnc12
0.17 | 0.01 | CN1C(C(=O)NCc2ccco2)=CC(c2ccc(F)cc2)=NS1(=O)=O
0.81 | -0.81 | O=C(N/N=C1/CCS(=O)(=O)c2ccc(F)cc21)c1ccccn1
1.4 | 0.04 | CC1Oc2ccccc2C=C1/C=N/Nc1ccc(C(=O)O)cc1 (stereo not given)
0.17 | -0.91 | O=C(CCc1ccccc1)NC(=S)Nc1cccc(C(=O)O)c1
0.84 | 0.29 | Cc1c(S(=O)(=O)N2CCCCC2)c(=O)n(C)c(=O)n1C
0.6 | -0.08 | Cc1cc(-c2nn3c(C)nnc3s2)ccc1NC(=O)C(C)(C)C
0.71 | 0.57 | O=C(c1cc(-c2cccc(O)c2)on1)N1CCOCC1
1.3 | 2.9 | CC1CN(C(=O)c2ccc(CNS(=O)(=O)c3cccc(Cl)c3)cc2)CC(C)O1 (stereo not given)
0.65 | 1.1 | Cc1ccc(-n2cnc(N)c2C(=O)c2cccc([N+](=O)[O-])c2)cc1
0.44 | 1.2 | O=[N+]([O-])c1ccccc1CN1CCN(S(=O)(=O)c2ccccc2)CC1
0.54 | -1.2 | CCOc1ccc(C(=O)CSc2nnc3ccccn23)cc1
4 | -0.32 | Cc1c(CCC(=O)N2CCC[C@H]2C(=O)O)c(=O)oc2c(C)c3oc4c(c3cc12)CCCC4
0.08 | 0.17 | Cc1nc(C(F)(F)F)ccc1C(=O)NN1CCOCC1
0.02 | -0.02 | CNC(=S)N1N=C(c2ccc(Br)cc2)CC1c1ccc(Br)cc1 (stereo not given)
0.36 | -1 | CCN(CC)S(=O)(=O)c1ccc(-c2nnc(SCC(C)=O)o2)cc1
0.59 | -0.18 | CCO[C@H]1OC(C(N)=O)=C[C@@H](c2csc3ccccc23)[C@@H]1CCCO
0.21 | -0.19 | N/C(=N\NS(=O)(=O)c1cc(C(F)(F)F)cc(C(F)(F)F)c1)c1ccccn1
1.1 | 0.49 | COc1ccc(N(C(=O)CNC(=O)c2cccs2)C(C(=O)NCC2CCCO2)c2ccccc2)c(OC)c1 (stereo not given)
1.4 | -0.51 | COc1ccc(-c2nc(CS(=O)CC(=O)NCCN3CCCCC3C)c(C)o2)cc1OC (stereo not given)
0.17 | 1.5 | CC(=O)Nc1sc2c(c1C(N)=O)CCN(Cc1ccccc1)C2
3.3 | -3.1 | CCOC(=O)c1c(-c2ccc(-c3ccccc3)cc2)csc1NC(=O)CCC(=O)O
0.29 | 0.57 | COc1ccc(NS(=O)(=O)c2ccc(NC(=S)NC(=O)/C=C/c3ccc(C)cc3)cc2)nn1
0.62 | -0.75 | CC(C)(C)c1ccc(C(=O)NC(=S)Nc2sc3c(c2C#N)CCC3)cc1
0.79 | -1 | CNc1nc(Cl)c(SC)c(NC2CCCCC2)n1

Reprinted from the part before: 3 compounds, followed by the next part.
KCNQ2 pot | KCNQ2 pot baseline | smiles
0.29 | 0.57 | COc1ccc(NS(=O)(=O)c2ccc(NC(=S)NC(=O)/C=C/c3ccc(C)cc3)cc2)nn1
0.62 | -0.75 | CC(C)(C)c1ccc(C(=O)NC(=S)Nc2sc3c(c2C#N)CCC3)cc1
0.79 | -1 | CNc1nc(Cl)c(SC)c(NC2CCCCC2)n1
0.68 | 3.1 | O=C(NCCCc1nc2ccccc2[nH]1)c1cccs1
1.4 | -2.1 | O=c1cc(CSc2nnnn2-c2ccccc2)nc(Nc2ccc(F)cc2)[nH]1
1.3 | 0.59 | COCCN(Cc1ccccc1)P(=O)(O)c1ccccc1OCC(=O)O
2 | 2.5 | O=c1[nH]c2ccc(N/C(=N/S(=O)(=O)c3ccccc3)c3ccccc3)cc2[nH]1
0.97 | 0.66 | COc1ccc(CCNC(=O)c2ccc(Cl)nc2)cc1
0.23 | 0.67 | COc1ccc(-c2cc3ccc(O)cc3oc2=O)cc1
0.32 | 1.1 | COc1ccc(OC)c(C2=C[N+](=O)C(C)(C)C(C)(C)N2[O-])c1
1.1 | -1.4 | Oc1ccc(C(=S)N2CCN(Cc3ccccc3)CC2)cc1
0.02 | -0.7 | O=C(NC(Cc1c[nH]c2ccccc12)C(=O)Nc1ccc(OC(F)(F)F)cc1)c1cccs1 (stereo not given)
2.3 | -0.26 | O=c1[nH]c(N2CCN(Cc3ccc4c(c3)OCO4)CC2)nc2c1CCCC2
0.31 | -0.86 | CN1CCc2nc(SCC(=O)Nc3ccc(Cl)cc3)c(C#N)cc2C1
1.2 | 1.6 | C=CCc1cccc(Cl)c1OCCCNC1CCCC1
0.21 | -0.01 | NC(=O)COC(=O)CCCSc1nc2ccccc2s1
1.8 | 0.43 | Cc1cc(NC(=O)c2cccc(S(=O)(=O)N3CCC(C)CC3)c2)no1
0.23 | 1.3 | CCCCNC(=O)CSc1nc(O)c(Cc2ccc(OC)cc2)c(=O)[nH]1

Retrieved one by one from above, seven records:
KCNQ2 pot | KCNQ2 pot baseline | smiles
2.3 | -0.26 | O=c1[nH]c(N2CCN(Cc3ccc4c(c3)OCO4)CC2)nc2c1CCCC2
1.3 | 0.59 | COCCN(Cc1ccccc1)P(=O)(O)c1ccccc1OCC(=O)O
0.32 | 1.1 | COc1ccc(OC)c(C2=C[N+](=O)C(C)(C)C(C)(C)N2[O-])c1
0.68 | 3.1 | O=C(NCCCc1nc2ccccc2[nH]1)c1cccs1
1.1 | -1.4 | Oc1ccc(C(=S)N2CCN(Cc3ccccc3)CC2)cc1
0.21 | -0.01 | NC(=O)COC(=O)CCCSc1nc2ccccc2s1
0.02 | -0.7 | O=C(NC(Cc1c[nH]c2ccccc12)C(=O)Nc1ccc(OC(F)(F)F)cc1)c1cccs1 (stereo not given)

Next part
KCNQ2 pot | KCNQ2 pot baseline | smiles
0.19 | -0.57 | COc1ccc(NC2CCCN(C(=O)c3ccc(C)c(N4CCNC4=O)c3)C2)cc1 (stereo not given)
11* | -0.13* | COc1ccc(C)cc1NC(=O)NNC(=O)C1CCC(C(C)(C)C)CC1 (stereo not given)
0.09 | -0.36 | C=CCN1c2ccccc2[C@]23C[C@@H](C(=O)OC)N(C(=O)OCC)C2=NC(C(=O)OC)=C(C(=O)OC)[C@H]13
0.98 | -0.81 | Cn1cnnc1SCC(=O)NNC(=O)c1ccc(Cl)cc1
0.13 | -0.35 | O=C(/C=C/c1ccco1)Nc1cccnc1
0.37 | -1.2 | CCCCS(=O)c1c(O)c2ccccc2[nH]c1=O (stereo not given)
0.07 | 2.1 | COc1ccccc1-c1nc(-c2ccc(Br)o2)no1
0.05 | 1.2 | CCCCC1C2C(=O)N(c3ccccc3)C(=O)C2ON1c1ccccc1 (stereo not given)
0.98 | 0.04 | CC(C)N=C(NC#N)SCc1ccc(Br)cc1
1.4 | 0.13 | CCCC(=O)OCCNC(=O)c1cc2ccccc2oc1=O
0.6 | 0 | CN(C)c1nnnn1-c1ccc(Cl)cc1Cl
0.73 | 0.44 | COC(=O)c1c(C)cc(O)cc1O
2.5 | 0.09 | O=C(NCC1CCCO1)c1cccnc1NCc1ccc(F)cc1 (stereo not given)
1.1 | -0.02 | O=c1onc(-c2ccccc2)c2ccccc12
1.2 | 0.22 | CC(O)[C@H]1CC[C@H]2[C@@H]3CC[C@H]4C[C@@H](O)CC[C@]4(C)[C@H]3/C(=N/O)C[C@]12C (stereo not given in full)
0.8 | 0.47 | C=CCn1c(SCC(=O)N(C)C2CCS(=O)(=O)C2)nc2ccccc2c1=O (stereo not given)
0.75 | 0.06 | CC1CC(C)CN(C(=O)CSc2nnc(CSc3ncccn3)n2C)C1 (stereo not given)
0.43 | 0.63 | COCCC(=O)N1CCC(Oc2ccc(C(=O)N3CCC(N(C)C)C3)cc2)CC1 (stereo not given)
0.74 | -0.25 | CN(C(=O)CCN1CCCO1)C1CCCN(Cc2ccccc2F)C1 (stereo not given)
1.3 | 0.38 | Cc1cc2ncc(-c3cccs3)nc2cc1C
0.27 | -0.93 | CCOC(=O)c1[nH]c2ccccc2c1NC(=S)Nc1cccc(C)c1
0.08 | 1.6 | Cc1nnc(SCC(=O)c2ccc(C(C)C)cc2)s1
0.46 | -0.9 | COC(=O)c1ccc(NS(=O)(=O)c2ccccc2)o1
1.5 | -0.02 | C/C(=N\NC(=O)CNC(=O)c1ccc2c(c1)OCO2)c1ccco1
2.8 | 1.8 | CCOC(=O)c1cnc2c(C(=O)OC)cccc2c1NCCN1CCOCC1
0.01 | -0.36 | CN(CC1CCCO1)S(=O)(=O)c1ccc(C(=O)Nc2ccc3c(c2)OCO3)cc1 (stereo not given)
0.02 | -0.32 | Cn1c2ccccc2c2nnc(SCCN3CCOCC3)nc21
0.65 | -1.4 | COc1ccc(C(=O)NCCc2nnc3ccc(SCC(=O)Nc4ccccc4F)nn23)cc1
1.3 | 0.59 | CCC(C)[C@H](NC(=O)[C@@H]1CSC2c3ccccc3C(=O)N21)C(=O)NCc1ccncc1 (stereo not given in full)
0.39 | 0.26 | COc1ccc(C2C(C#N)=C(N)N(c3cccnc3)C3=C2C(=O)CCC3)cc1Cn1cc([N+](=O)[O-])cn1 (stereo not given)
0.75 | 0.2 | Cc1ccc(NC(=O)CCOc2ccccc2)cc1S(=O)(=O)Nc1ccccc1Cl
1.4 | -0.29 | CCCCOCC(O)CN1CCN(C(C)=O)CC1 (stereo not given)
1.1 | 0.12 | COc1ccc(CCN(C)CCCN2CC(c3ccccc3)CC2=O)cc1OC (stereo not given)
1.9 | -0.59 | N#CC12CCCCC1CC1CCCCC1(C#N)N2N (stereo not given)
0.9 | -1.6 | COc1ccc(C(=O)CSc2nnc(-c3ccco3)n2C)cc1
3.8 | 1.9 | CCOc1ccc2nc(NCCNC(=O)C(C)(C)C)c(C)cc2c1
0.84 | -0.9 | NS(=O)(=O)c1ccc(NC(=O)c2ccc(S(=O)(=O)N3CCc4ccccc43)cc2)cc1
1.3 | 0.7 | Cc1cccc(S(=O)Cc2ccc(C(=O)NC3CCN(Cc4ccccc4)CC3)o2)c1 (stereo not given)
1.8 | -0.93 | COc1ccc(N2C(=O)C3CCCN3C2c2cccc(OC)c2)cc1 (stereo not given)
0.15 | 0.15 | O=C(Cc1csc(-c2cccc(Cl)c2)n1)Nc1cccc(S(=O)(=O)NC2=NCCC2)c1
0.36 | -1.1 | COc1ccc(C2C(C(=O)c3cccs3)=C(O)C(=O)N2Cc2cccnc2)cc1OC (stereo not given)
0.2 | -0.16 | CCN(CC)CC(=O)c1c[nH]c2ccc(OC)cc12
1.7 | -0.15 | NC(=O)C1CNc2ccccc2O1 (stereo not given)
0.04 | -1.8 | Cc1ccc2ncnc(Oc3ncccc3NC(=O)C(C)(C)C)c2c1
0.58 | 3 | Cc1cc(C(=O)Nc2cccc3cccnc23)ccc1[N+](=O)[O-]
0.78 | -0.53 | CCOC(=O)c1[nH]c(C)c(C(=O)NCc2ccc(C)cc2)c1C
0.46 | 0 | O=C(CSc1nnc2scc(-c3ccc(F)cc3)n12)NCc1ccco1
0.24 | -2 | CC(=O)Nc1cccc(-c2nc3ccccc3c(=O)o2)c1
0.16 | -1.7 | O=c1[nH]cc([N+](=O)[O-])cc1Br
0.34 | 0 | COc1ccc(CNC(=O)c2c(C)cc(=O)oc2C)cc1OC
0.08 | 1.8 | CC1(C)CC(=O)C(C(=O)/C=C/NCCc2ccccc2)C(=O)C1
2.8 | 0.48 | O=C(CN(CC1CCCO1)C(=O)CNS(=O)(=O)c1ccc(Cl)cc1)NCCc1ccccc1 (stereo not given)
1.1 | -2.1 | CN1C(C(=O)Nc2ncccn2)=C(O)c2ccccc2S1(=O)=O
0.09 | 0.58 | Cc1cccc(C(=O)OCc2cc3ccccc3[nH]c2=O)c1
0.28 | -1.7 | COc1ccccc1C(CNC(=O)C(CCSC)NS(=O)(=O)c1ccccc1F)N1CCCC1 (stereo not given)
0.5 | 3.3 | COc1ccc(C2=C/C(=C/c3cccnc3)C(=O)O2)cc1OC
